# MenB inh: M. tuberculosis MenB inhibitors, primary screen, biochemical, absorbance. 1,4-dihydroxy-2-naphthoyl-CoA synthase (Mycobacterium tuberculosis (strain ATCC 25618 / …. MenB enzyme assay, absorbance read-out; some hits fall short of the stated cut. inhibition, %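 (about 12 µg/mL by stock and volumes)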. 100,000 tested, 0.43% active;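 active means mean of two replicates above 30%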;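 further: 0% = no compound and 100% = wells with inactive enzyme; the first replicate is given; strong numbers were not always called active; inactives centre near -10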
# Target sequence (P9WNP5 whole entry, looked up): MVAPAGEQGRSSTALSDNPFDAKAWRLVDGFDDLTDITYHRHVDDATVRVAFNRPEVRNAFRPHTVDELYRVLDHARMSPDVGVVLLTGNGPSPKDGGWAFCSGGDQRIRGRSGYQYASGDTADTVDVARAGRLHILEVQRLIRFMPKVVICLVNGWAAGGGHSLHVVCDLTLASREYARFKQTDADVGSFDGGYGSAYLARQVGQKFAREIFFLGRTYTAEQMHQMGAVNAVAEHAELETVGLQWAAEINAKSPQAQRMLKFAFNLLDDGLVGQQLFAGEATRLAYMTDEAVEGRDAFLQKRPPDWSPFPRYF
# MbtI inh: MbtI salicylate synthase inhibitors, primary screen, biochemical, fluorescence intensity; inhibition, %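 (about 17 µg/mL by stock and volumes)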; AID 493033, 2011; P9WFX0; purified MbtI enzyme, fluorescence intensity read-out; 100,000 tested, 0.89% active;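 active means above 50% in both replicates, above 80% if mildly self-fluorescent; inactive means the rest, strongly fluorescent compounds included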;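 further: 0% = mean of negative and 100% = mean of positive controls; one replicate is shown; some compounds called inactive have numbers as strong as hits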
# PV pol inh: poliovirus RdRp elongation inhibitors, primary screen, biochemical, fluorescence polarization, total intensity; 150,000 tested, 0.66% active; % elongation, % (compound at 16.7 µg/mL); AID 588519, 2011; poliovirus polymerase elongation; stronger effect = lower value; in the data active means % elongation below about 90%; further: some results filed as inactive read as strong as hits
# Target sequence (P03300 1749-2209 limits assumed): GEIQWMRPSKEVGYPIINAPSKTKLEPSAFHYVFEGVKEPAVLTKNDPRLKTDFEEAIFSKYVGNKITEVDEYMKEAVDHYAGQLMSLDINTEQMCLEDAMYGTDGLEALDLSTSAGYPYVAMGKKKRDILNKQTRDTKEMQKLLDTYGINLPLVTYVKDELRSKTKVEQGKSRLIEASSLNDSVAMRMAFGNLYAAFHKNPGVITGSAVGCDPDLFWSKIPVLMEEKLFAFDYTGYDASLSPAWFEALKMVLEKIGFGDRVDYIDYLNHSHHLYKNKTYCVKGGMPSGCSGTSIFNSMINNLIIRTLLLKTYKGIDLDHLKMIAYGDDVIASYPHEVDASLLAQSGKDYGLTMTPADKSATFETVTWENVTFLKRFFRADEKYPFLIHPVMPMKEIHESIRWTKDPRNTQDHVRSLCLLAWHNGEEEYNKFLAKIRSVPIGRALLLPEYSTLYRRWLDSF
# PV pol inh intensity: further read-out of PV pol inh, marked with its call; % elongation; measured here: total intensity read-out; formula for this scale not given here;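 total fluorescence in place of polarization; lower means less elongation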
# The depositor's hits bear a star; i = inactive; . = no result given.
SMILES	PV pol inh intensity	MbtI inh	PV pol inh	MenB inh
CN(C)c1ccc(/C=C2/Oc3c(ccc(O)c3O)C2=O)cc1	254	.	46	-68
N#Cc1ccccc1CS(=O)(=O)N1CCN(S(=O)(=O)/C=C/c2ccccc2)CC1	108	-7	104	-3
COCCN(C(=O)c1cc2ccccc2o1)C1(C(=O)Nc2ccccc2)CCN(C(C)C)CC1	96	-7	103	-22
O=S(=O)(c1ccc(Br)cc1)N(Cl)Cl	104	-3	101	.
COc1cc2c(cc1OC)C1=C(C#N)CN(C3CCCCC3)CN1CC2	103	9	100	20
C=CCN1C(=O)C(=O)/C(=C(\O)c2ccccc2)C1c1ccc(OC)cc1 (configuration not stated)	110	.	103	-1
NC(=O)C[n+]1ccc(/C=N/O)cc1	102	11	99	-11
COc1ccc(NC(=O)C2C3NC(=S)NC2(C)Oc2ccccc23)cc1 (configuration not stated)	102	39	101	0
COC(=O)c1cc(-c2cncnc2-c2ccc(OC)c(C)c2O)c(C)o1	114	.	100	-15
CNC(=S)N(C)CC(=O)Nc1c(Cl)cccc1Cl	105	3	100	-24
Cc1ccc(CNC(=O)C2CCC(CNc3nc(=S)[nH]c4ccccc34)CC2)cc1 (configuration not stated)	103	-3	103	-25
CC(=O)Nc1ccc(-c2csc(Nc3ccccc3C)n2)cc1	133	.	121	-20
O=C(CSCCOc1ccccc1)N1CCCC1	100	15	102	1
N/C(CSc1nc(SC/C(N)=N\O)ns1)=N\O	100	6	101	2
O=C(Nc1cccc(Cl)c1)N1CCC(n2nnc3cc(F)ccc32)CC1	.	-5	.	-18
COC(=O)c1sc(N)c(C(=O)OC)c1C	101	94	101	-13
COC(=O)c1noc(C(=O)OC)c1OCC(=O)c1cc(C)n(Cc2ccccc2Cl)c1C	93	5	104	13
Nn1c(SCc2csc(-c3ccccc3)n2)nnc1-c1cccs1	89	67	98	-19
Cc1cc(C)n(C(=O)CCC(=O)NCc2ccccc2)n1	107	.	112	-1
CN1CCN(C(=O)CSc2nc3ccccc3n2C)CC1	104	-4	103	-29
O=c1c2cc3sccc3n2cc(-c2ccccc2)n1-n1cccc1	108	17	104	-9
COc1ccc(C)cc1-n1c(SCC(=O)N(C)C2CCS(=O)(=O)C2)nc2ccccc2c1=O (configuration not stated)	103	-8	104	-5
CC1CCCCN1C(=S)NC(=O)c1cccs1 (configuration not stated)	93	12	99	-35
O=C(O)CCC(=O)c1ccccc1	66*	-6	75*	-4
CCC(Sc1nc2cc(OC)c(OC)cc2c(=O)n1Cc1ccco1)C(=O)Nc1cccc(OC)c1 (configuration not stated)	103	-24	102	8

# Next section (2 carried over from the part before).
SMILES	PV pol inh intensity	MbtI inh	PV pol inh	MenB inh
O=C(O)CCC(=O)c1ccccc1	66*	-6	75*	-4
CCC(Sc1nc2cc(OC)c(OC)cc2c(=O)n1Cc1ccco1)C(=O)Nc1cccc(OC)c1 (configuration not stated)	103	-24	102	8
COC(=O)c1ccc(NC2CCCCC2)c(N)c1	97	141	100	1
Cc1nc2ccc(F)cc2c2c1COC2	102	16	99	11
Cc1cc(C)nc(N2CCC(NC(=O)OC(C)(C)C)CC2)n1	101	-33	101	-8
COc1cc(CN2CCN(c3cccc(Cl)c3)CC2)ccc1O	99	11	100	18
CN(C)c1ccc(C(=S)N2CCN(c3ccccc3F)CC2)cc1	101	58	102	-32
CCN(CC)C(=O)CSc1nnc(C(C)N(C)C)n1-c1ccc(F)cc1 (configuration not stated)	106	-6	101	-94
CN(Cc1ccccc1)Cc1cccnc1	107	.	105	-5
C/C(=N\O)C(=O)NCC1CCNCC1	100	-7	101	-5
Clc1ccccc1C1=NC2=S(O1)OC(c1ccccc1Cl)=N2	103	80*	96	6
COC(=O)/C(=C(/O)c1ccccc1)c1nc2ccccc2[nH]1	104	-3	105	-16
CCCCc1ccc(C(=O)/C=C2\NC(=O)CS2)cc1	111	-15	107	-36
CCc1cc2c3c(c1)/C(=C1/SC(N)=NC1=O)C(=O)N3C(C)(C)C=C2C	101	0	100	-24
COc1ccc(C(=O)Nc2ccc(S(=O)(=O)Nc3nccnc3OC)cc2)cc1	101	1	102	-17
CCN(CC)N=Nc1ccc(NC(C)=O)cc1	101	90*	106	10
CCOC(=O)/C=C1\SCC(=O)N1CC(=O)N1CCN(S(=O)(=O)c2ccc3ccccc3c2)CC1	98	-26	98	-19
O=C(NCc1ccccc1Cl)C1CCC(=O)N1Cc1ccc(F)cc1 (configuration not stated)	106	-2	102	1
O=C(Nc1ccc2c(c1)OCCO2)c1csc2c1CCCC2	102	1	103	-28
Cc1cccc(NC(=O)c2cn(-c3ccccc3)nc2-c2cccnc2)c1	102	-5	101	.
CCCc1[nH]nc2c1C1(CCN(C)CC1C)C(C#N)=C(N)O2 (configuration not stated)	100	-6	103	-6
Cc1ccccc1-c1nnn(Cc2ccc(-c3nn[nH]n3)cc2)n1	98	13	99	0
COc1cc(C2N(C)c3ccccc3-c3nc4ccccc4n32)cc(OC)c1OC (configuration not stated)	104	116	104	-11
CC(=O)O[C@@H]1CC[C@]2(C)C3CC[C@]4(C)C(=O)CCC4C3CC[C@H]2C1 (some centres not stated)	100	-15	101	-14
CSC1=N/C(=C\c2ccccc2O)C(=O)N1Cc1ccc(Cl)cc1	127	-1	121	-23
O=C(c1ccc(Cl)cc1)N1CCCC(C(=O)N2CCCc3ccccc32)C1 (configuration not stated)	98	11	97	-22
CN1C2CCC1CC(NC1CCCCC1)C2 (configuration not stated)	76*	.	80*	4

# Reprinted from the part before: four entries; new compounds follow.
SMILES	PV pol inh intensity	MbtI inh	PV pol inh	MenB inh
CC(=O)O[C@@H]1CC[C@]2(C)C3CC[C@]4(C)C(=O)CCC4C3CC[C@H]2C1 (some centres not stated)	100	-15	101	-14
CSC1=N/C(=C\c2ccccc2O)C(=O)N1Cc1ccc(Cl)cc1	127	-1	121	-23
O=C(c1ccc(Cl)cc1)N1CCCC(C(=O)N2CCCc3ccccc32)C1 (configuration not stated)	98	11	97	-22
CN1C2CCC1CC(NC1CCCCC1)C2 (configuration not stated)	76*	.	80*	4
CC(C)OC(=O)Cc1csc(-c2ccc(Oc3ccc(C(F)(F)F)cn3)cc2)n1	110	19	107	-7
Cc1ccc2nc(C)c3cc(C)oc3c2c1	98	4	101	-34
O=C(CC1OC(=O)c2ccccc21)c1cc(O)ccc1O (configuration not stated)	.	11	.	-73
CCOc1ccc2nc(N3CCC(C(=O)N4CCCCC4)CC3)sc2c1	105	-5	103	8
O=C(COc1ccccc1)Nc1ccc2[nH]c(=O)[nH]c2c1	103	3	97	-26
CCN1CCN(C(C)C(=O)N(C(C)C)C(C)C)CC1 (configuration not stated)	101	11	101	15
CC(c1nnc(SCc2cc(=O)n3ccsc3n2)n1-c1ccc(Cl)cc1)N1CCCCC1 (configuration not stated)	111	4	105	-14
COc1ccc2oc(=O)cc(CN3CCCCC3)c2c1	109	26	101	1
CCN(CC(=O)Nc1cccc(OC)c1)Cc1cc(=O)oc2cc(NC(C)=O)ccc12	94	91	98	-10
CC1CC(C)CN(CCC(=O)Nc2ccccc2F)C1 (configuration not stated)	102	12	100	-52
CCOC(=O)c1cnc2c(ccc3ccccc32)c1NCCN1CCOCC1	101	8	104	-27
Cc1cc(C)n2nc(CNS(=O)(=O)c3cccc4nsnc34)nc2n1	105	1	106	1
Nn1c(NNC(=O)c2ccccc2)nnc(-c2cccs2)c1=O	94	40	92	-18
CCOC(=O)c1c(C(C)(C)C)oc2ccc(OCC(=O)OC)cc12	104	24	103	-11
O=C(COC(=O)c1ccccc1Br)NCC1CCCCC1	108	-12	103	.
CN(C(=O)Cn1c(=O)n(CC(=O)NCCc2ccccc2)c(=O)c2sccc21)C1CCCCC1	97	-5	98	1
Cc1cc2nc3c(c(C(F)(F)F)n2n1)CCCC3	102	.	103	-12
COC(=O)Cn1c2ccc(C)cc2c2nc3ccccc3nc21	101	-15	101	-13
CC12CC(NC(=O)N1c1ccc(C(=O)N3CCN(Cc4ccc5c(c4)OCO5)CC3)cc1)c1cc(Cl)ccc1O2 (configuration not stated)	102	1	99	-16
COC(=O)c1cc(S(=O)(=O)NC2CCCCC2C)c[nH]1 (configuration not stated)	96	-12	101	-16
Cc1cc(C)nc(-n2nc(C)cc2NC(=O)CN2CCCC2)n1	113	-14	106	-13
O=C(Nc1csnc1-c1c(Cl)cccc1Cl)NN1CCOCC1	104	-2	100	0
Cc1ccc(/C=C/S(=O)(=O)N2CCC(C(=O)O)CC2)cc1	104	10	97	-4
COc1ccc(OCC(O)CNC(=O)c2ccc(N(C)C)cc2)cc1 (configuration not stated)	108	-15	104	-1
Cc1ccc(C2=NNC(=S)C3=CNc4ccccc4N32)cc1	130	.	121	-7
Cn1c(-c2ccc(Br)cc2)n[nH]c1=S	100	61	99	-21
Cc1cc(Cl)ccc1OCCCC(=O)NN1CCOCC1	99	11	102	-29
Cc1cc(C)c2sc(N3CCCC3)nc2c1	99	16	102	-3
Cc1cccc(C)c1Nc1c(-c2ccsc2)nc2sccn12	104	-3	101	-5
CC(C)NC(=S)NNc1ccccc1C(F)(F)F	106	5	104	-26
COC(=O)c1cnn2c(=O)c3c(n(C)c12)CCN(Cc1ccccc1)C3	100	50	97	8
CN1C[C@H](CO)C=C2c3cccc4[nH]cc(c34)C[C@H]21	104	i	98	1
COc1ccccc1NC(=S)NC1CC2CCC1C2 (configuration not stated)	97	-12	102	-29
COc1ccccc1NC(=O)C(c1ccccc1)N1CCOCC1 (configuration not stated)	105	2	102	-12
O=C(CC1=NS(=O)(=O)c2ccccc2N1)NCCc1c[nH]c2ccccc12	100	-16	102	-26
Cc1cc(Nc2ccccc2)n(CCC#N)n1	105	-6	101	.
CN(CCc1ccccn1)C(=O)c1cccc(OC(F)F)c1	112	0	108	-19
COc1ccc(OC)c(-c2csc(=Nc3cccnc3)n2Cc2ccco2)c1	100	5	101	-41
O=C(NC1CCCCC1)Sc1ccc(Cl)cc1	99	76*	95	-40
FC(F)n1c(=S)[nH]c2ccccc21	103	28	108	-11
Cc1ccc2nc(Nc3ccc(Cl)cc3)c(/C=N/O)c(=O)n2c1	113	.	107	-14
NC(=O)Cn1c(CN2CCCC2c2ccc3c(c2)OCCCO3)nc2ccccc2c1=O (configuration not stated)	101	0	96	-7
O=C(NCc1ccccc1)N1c2ccccc2Sc2ccccc21	105	-2	102	-31
CC(C)(C)C(=O)N1CCCC1C(=O)Nc1ccccc1 (configuration not stated)	108	.	103	17
CCN1C(=O)/C(=c2/s/c(=C3\SC(C)=C(C)N3CC)c(=O)n2CC)N(C)C1=S	101	9	99	-13
CCOC(=O)NC(=O)c1cn(Cc2cccs2)c(=O)n(C)c1=O	98	-4	104	8
CC(C)(C)c1cc(C(=O)OCCN2CCCCC2)cc(C(C)(C)C)c1	105	2	101	-15
O=C(NCc1cccnc1)c1cc(-c2ccccn2)nc2ccccc12	105	0	104	.
CC(=O)Nc1cccc(-c2nnc(SCc3cccc(Cl)c3)n2C)c1	103	5	100	9
O=C(C1CCN(S(=O)(=O)c2cccc3nonc23)CC1)N1CCCC1	103	-2	104	12

# Remaining list, next part
SMILES	PV pol inh intensity	MbtI inh	PV pol inh	MenB inh
CC1SC(C)C(=O)N(CC(=O)Nc2ccc3c(c2)OCCO3)C1=O (configuration not stated)	102	1	98	8
COC(=O)C1C(=O)CC(=O)CC1c1ccco1 (configuration not stated)	104	1	100	40*
CC1(C)CC(=O)C2=C(C1)OC1=C(C2)C(=O)CC(C)(C)C1	100	-8	101	-24
O=C(COC(=O)c1ccccc1NC(=O)c1ccco1)Nc1ccccc1	110	53	103	-25
Cc1ccc(-c2nc3ccc(S(N)(=O)=O)cc3[nH]2)s1	127	106	115	-32
O=P1(NCCO)C=C(c2ccccc2)OC(c2ccccc2)=C1	107	-10	102	-2
CCC(c1nnnn1CCc1ccccc1)N(Cc1ccco1)Cc1cc2cc(C)ccc2[nH]c1=O (configuration not stated)	104	24	106	-2
Cc1cc(NCCNc2ccccc2)c2ccc3ccccc3c2n1	99	62	103	8
Cc1noc(C2CCCNC2)n1 (configuration not stated)	102	-10	102	-22
O=C(CN1C(=O)COc2ccc(Cl)cc21)N1CCc2ccccc21	103	-16	101	-16
O=C1CCc2cc(C(=O)CSc3ccc(Cl)cc3Cl)ccc2N1	98	23	106	-14
CS(=O)(=O)Nc1ccccc1C(=O)OCC(=O)Nc1ccccc1C(F)(F)F	102	-21	100	-9
CCN(C(=O)c1cnccc1C(F)(F)F)c1c(C)cccc1C	92	-2	100	5
O=C(Nc1ccc(OC(F)(F)F)cc1)Oc1ccccc1N1CCOCC1	109	-11	97	9
COc1ccc(CCC(=O)Nc2ccc3nc4n(c(=O)c3c2)CCCC4)cc1	98	19	100	-10
Cc1ccc(C2=CC(c3ccccc3)SC(N)=N2)cc1 (configuration not stated)	107	.	102	-45
